Screening results (PubChem BioAssay)
HSV replic up = HSV replication enhancement. 0.005% of 220,000 active. HSV replication augmentation in cells, fold increase. maximum fold increase;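 active = peak rise of 1.5-fold or more in the series; inconclusive = self-fluorescent or not available for retest; tested in PC3 cells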;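 note: first round at 10 µM; read as green reporter fluorescence; hits show the peak of a series up to 25 µM; 1 = signal of infected wells without compound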
PKD1 kinase inh = inhibitors of human PKD1 kinase. inhibition, %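 (about 10 µM by stock and volumes)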. PKD1 kinase fluorescence polarization assay. 0.056% of 200,000 active. Q15139;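 active = inhibition of 50% or more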;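 note: controls were vehicle for no effect and a reference inhibitor for full effect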
Target sequence (Q15139 whole entry, looked up): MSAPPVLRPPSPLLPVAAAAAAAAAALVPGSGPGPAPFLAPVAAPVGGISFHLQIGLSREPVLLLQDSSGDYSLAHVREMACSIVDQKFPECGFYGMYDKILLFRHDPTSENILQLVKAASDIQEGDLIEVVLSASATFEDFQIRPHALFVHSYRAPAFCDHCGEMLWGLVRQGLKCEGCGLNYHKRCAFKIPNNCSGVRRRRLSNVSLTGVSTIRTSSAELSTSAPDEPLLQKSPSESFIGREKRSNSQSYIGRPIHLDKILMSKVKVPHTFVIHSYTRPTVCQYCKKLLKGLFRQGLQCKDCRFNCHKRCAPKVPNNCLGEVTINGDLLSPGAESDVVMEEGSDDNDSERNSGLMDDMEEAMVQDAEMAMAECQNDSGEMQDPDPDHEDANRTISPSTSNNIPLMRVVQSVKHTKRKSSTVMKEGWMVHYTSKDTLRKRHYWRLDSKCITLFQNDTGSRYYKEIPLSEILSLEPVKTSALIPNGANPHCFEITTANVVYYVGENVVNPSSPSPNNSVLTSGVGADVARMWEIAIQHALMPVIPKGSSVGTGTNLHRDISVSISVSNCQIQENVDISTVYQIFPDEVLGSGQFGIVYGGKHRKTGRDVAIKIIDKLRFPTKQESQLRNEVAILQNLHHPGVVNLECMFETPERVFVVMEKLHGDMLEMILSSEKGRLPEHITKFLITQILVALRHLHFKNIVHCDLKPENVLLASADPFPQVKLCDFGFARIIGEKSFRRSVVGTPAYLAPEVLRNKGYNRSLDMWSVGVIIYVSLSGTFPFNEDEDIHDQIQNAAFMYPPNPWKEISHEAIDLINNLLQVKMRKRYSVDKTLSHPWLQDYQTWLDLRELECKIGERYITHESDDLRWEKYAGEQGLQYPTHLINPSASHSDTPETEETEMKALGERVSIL
Insulin prom inh = TRM-6 insulin promoter activity inhibition | inhibition, % at 2 µM | 0.9% of 130,000 active | TRM-6 cells (human fetal islet line), insulin promoter-eGFP reporter, imaging; reporter expression induced with tamoxifen;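 active = inhibition above the mean plus 3 SD, with well images judged a real hit on visual review, cut at about 60% in these data, passing the limit was not always enough; inconclusive = inhibition over the cutoff but images rejected on review; inactive = inhibition not above the cutoff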
GALR2 ag = activates the human galanin receptor 2 | 0.48% of 140,000 active | AID 803 | GALR2-expressing cells, agonist activation read-out | O43603 | activation, %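 (tested at 5 µM)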;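 active = above mean plus 3 SD of all compounds, about 5% in these data, not always enough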;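 note: 0% = vehicle buffer wells and 100% = reference agonist at full effect; tested in CHO reporter cells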
RGS16-Gao = modulates binding between human RGS16 and Galphao | bead-based flow cytometry RGS16-Galphao binding, fluorescence; actives lie on both sides | binding response (% of control), % at 10 µM | 0.38% of 220,000 active;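 active = below 25% or above 175%, edge rows of some plates excepted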;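 note: Galphao activated by GDP with aluminum fluoride before binding; 100% = wells without compound and 0% = beads without RGS; some results beyond the cut were filed as inactive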
Insulin prom inh cell count = further read-out of Insulin prom inh, marked with its call; normalized cell count, %; measured here: cell count, toxicity; reference of the scale not given here;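 cells exposed to compound for 48 h; stained nuclei by imaging scaled within each plate; lower means fewer cells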
HSV replic up primary fold = also measured in HSV replic up; calls as there; fold increase; compound at 10 µM; measured here: primary screen fold increase 10 uM; tested in PC3 cells;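 GFP signal in the first replicate; 1 = infected wells without compound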
* marks the source's active call; other numbers are inactive results; i = inactive; u = inconclusive; x = not tested or not shown.

compound,HSV replic up,HSV replic up primary fold,PKD1 kinase inh,Insulin prom inh,Insulin prom inh cell count,GALR2 ag,RGS16-Gao
CC(=O)Nc1ccc2nc(C3CCCCC3)[nH]c2c1,i,0.95,4,39,85,-0.7,88
O=C(CCSc1ccc(Cl)cc1)NN=C1CCCCCC1,i,0.96,0,-23,128,x,104
COc1ccc(-c2n[nH]c(=S)n2/N=C/C=C\c2ccccc2OC)cc1,i,0.81,-4,x,x,-1.6,102
Cc1cccc2sc(NNC(=O)c3ccc(S(=O)(=O)N4CCCC(C)C4)cc3)nc12 (centres undefined),x,x,1,65*,83*,5.2*,102
O=C(CCN1CCCCC1c1cccnc1)NCc1ccccc1 (centres undefined),i,0.95,2,-19,86,-1.1,121
C#CCNC(=O)C1=C[C@H](c2csc3ccccc23)[C@@H](CCCO)[C@H](OCC)O1,i,0.99,-5,x,x,x,90
Cc1n[nH]c(C)c1C(=O)CC1(O)C(=O)N(CCc2ccccc2)c2ccc(Br)cc21 (centres undefined),i,0.82,-2,-20,100,-1.8,104
CCN(CC)C(=O)COc1ccc(/C(C)=N/NC(=O)c2ccccc2Br)cc1,i,1,2,x,x,x,102
CCSc1nc2sc3c(c2c(=O)[nH]1)CC(C)(CC)OC3 (centres undefined),i,0.88,-11,-18,63,-2.8,99
CCOc1ccccc1N(CC)C(=O)Cn1ncc2c(=O)oc3ccccc3c21,i,1.1,-14,x,x,-0.7,99
O=C(N/N=C/c1ccc(N2CCOCC2)o1)c1cccc([N+](=O)[O-])c1,i,1.1,-1,29,116,-1.6,18*
Cc1cc2occ(CC(=O)NC3=NCCS3)c2cc1C(C)C,i,0.61,4,x,x,2.4,121
CCC(C(=O)NC(C)(C)C)N(C(=O)Cn1nnc(-c2ccccc2F)n1)c1cccc2c1CCCC2 (centres undefined),i,0.7,1,39,161,-4.1,106
N#Cc1c(Nc2ccccc2)sc(C(=O)c2ccccc2)c1N,i,1.1,4,10,128,-1.6,106
COC(=O)c1cc(Br)ccc1-c1ccc(/C=N/n2nnnc2N)o1,i,0.87,2,31,62,-3.3,97
O=C(Nc1ccc(S(=O)(=O)N2CCCCC2c2cccnc2)cc1)c1c(F)cccc1F (centres undefined),i,0.88,-1,0,149,x,98
Cc1cc(NC(=O)CN2CCN(c3ccc(O)cc3)CC2)no1,i,1.1,-6,3,322,-1.0,105
O=Cc1c(OCc2ccccc2)ccc2ccccc12,i,0.88,4,25,142,x,103
COc1ccc2cc3[n+](cc2c1OC)CCc1cc2c(cc1-3)OCO2,i,1.1,-6,67*,129*,-1.4,86
Cn1c(Oc2ccc(F)cc2)c(C=O)c2ccccc21,i,0.89,-5,-22,103,x,90
CCOc1cc(-c2noc(N)c2C#N)cc(OCC)c1OCC,x,x,-7,-2,94,-0.7,97
O=C(Nc1ccc(Cl)cc1)Nc1nnc(CSCc2ccccc2)s1,i,0.87,8,x,x,0.4,102
CCCCN(C)C(=S)Nc1ccc(Oc2ccccc2)cc1,i,1.1,-7,x,x,-1.9,121
COc1ccc(-c2[nH]ncc2CNC(C)CCn2cccn2)cc1F (centres undefined),i,0.94,-3,x,x,x,102
COC(=O)c1ccccc1NC(=O)CSc1nc(O)cc(=O)n1C1CCCC1,i,1,1,-43,111,-0.9,100
CCN=C1SC(C(=O)NCCc2ccccc2)CC(=O)N1CC (centres undefined),i,1,-5,36,97,-2.3,98
O=C(Cc1ccccc1)Nc1nc(-c2cccs2)cs1,i,0.91,-13,57,67,-2.9,99
O=[N+]([O-])c1ccc(-c2ccc(/C=N/c3c(-c4ccco4)nc4ccccn34)o2)c(Cl)c1,x,x,-6,x,x,-0.6,109
Nc1nnc(CC(=O)N/N=C/c2ccc(-c3cccc(C(=O)O)c3)o2)s1,i,1,x,x,x,x,98
CCS(=O)(=O)n1nc(-c2cccnc2)nc1NCc1ccc(F)cc1,i,0.98,-2,x,x,x,99

A stretch taken from the entries so far, for reference:
compound,HSV replic up,HSV replic up primary fold,PKD1 kinase inh,Insulin prom inh,Insulin prom inh cell count,GALR2 ag,RGS16-Gao
COc1ccc(-c2[nH]ncc2CNC(C)CCn2cccn2)cc1F (centres undefined),i,0.94,-3,x,x,x,102
COC(=O)c1ccccc1NC(=O)CSc1nc(O)cc(=O)n1C1CCCC1,i,1,1,-43,111,-0.9,100
CCN=C1SC(C(=O)NCCc2ccccc2)CC(=O)N1CC (centres undefined),i,1,-5,36,97,-2.3,98
O=C(Cc1ccccc1)Nc1nc(-c2cccs2)cs1,i,0.91,-13,57,67,-2.9,99
O=[N+]([O-])c1ccc(-c2ccc(/C=N/c3c(-c4ccco4)nc4ccccn34)o2)c(Cl)c1,x,x,-6,x,x,-0.6,109
Nc1nnc(CC(=O)N/N=C/c2ccc(-c3cccc(C(=O)O)c3)o2)s1,i,1,x,x,x,x,98
CCS(=O)(=O)n1nc(-c2cccnc2)nc1NCc1ccc(F)cc1,i,0.98,-2,x,x,x,99

The list continues.
compound,HSV replic up,HSV replic up primary fold,PKD1 kinase inh,Insulin prom inh,Insulin prom inh cell count,GALR2 ag,RGS16-Gao
Cc1cc(CNC(=O)CC2C(=O)NCCN2CC(C)(C)C)nn1C (centres undefined),i,1.2,1,x,x,x,96
Cc1ccc(NC(=O)c2c([N+](=O)[O-])c(C(C)(C)C)nn2C)c(C)c1,i,0.95,13,5,136,0.0,104
CCNC(=S)N1CCN(C(=O)C(Cc2ccccc2)NC(C)=O)CC1 (centres undefined),i,0.96,-6,x,x,x,101
Cc1nnc2sc(SCc3ccccc3)nn2c1=O,i,0.98,-11,x,x,0.0,98
CCn1cc(NC(=O)Nc2ccc(OC)c(OC)c2)c(C(N)=O)n1,i,0.99,5,-23,74,-0.9,103
Cc1[nH]nc2ncc(C(=O)c3cc(Cl)cc(Cl)c3O)cc12,i,0.97,1,38,85,1.3,104
CCCCN(C)CCn1c(=S)[nH]c2ncccc2c1=O,i,0.87,-2,-7,105,-4.0,102
CCOC(=O)Cn1nc(C)n(-c2ccc(C(C)(C)C)cc2)c1=O,i,0.85,-6,-48,89,-0.8,101
Cc1ccc(C(=O)CSc2nnc(Cn3nnc4ccccc43)n2C)cc1,i,1.3,8,-71,140,-1.8,104
Nc1c2c(nc3c1CCC3)CCCC2,i,0.7,x,x,x,x,99
CC1(C)Cc2ccccc2C(N/N=C/c2ccc([N+](=O)[O-])cc2)=N1,i,0.92,7,x,x,x,106
COc1cccc(N2CC(C(=O)Nc3nnc(SCC(=O)Nc4cc(C)on4)s3)CC2=O)c1 (centres undefined),i,1,-5,x,x,x,100
O=C(OCC(=O)N1CCN(c2ccccc2)CC1)c1ccc2ccccc2n1,i,1.1,-1,-35,108,-2.4,102
Cc1cc(C(=O)CSc2nncn2C)c(C)n1-c1ccccc1,i,1.1,5,x,x,x,103
COc1ccc(NS(=O)(=O)c2cccc(NC(=O)c3ccccn3)c2)cc1,i,1.2,x,x,x,x,95
Cc1ccc2c(c1)c1ncnc(N3CCC4(CC3)OCCO4)c1n2C,i,0.85,5,-36,99,-1.9,92
CC(=O)Nc1ccc(N2C(=O)C3C4CC(=O)C(c5ccccc54)C3C2=O)cc1 (centres undefined),i,0.99,-2,-13,110,-1.0,120
Cc1cccc(-c2cc3nc4c(c(N5CCCC(O)C5)n3n2)CCC4)c1 (centres undefined),i,0.77,3,-18,101,0.8,104
COCCN(C(=O)CCCC(=O)Nc1ccccn1)C(C(=O)NC1CCCCC1)c1ccc(C)cc1 (centres undefined),i,0.99,1,-18,80,-0.9,105
Cc1ccc(N=Nc2c(O)ccc3n[nH]nc23)cc1,i,1,x,x,x,x,112
CCOc1ccccc1N(CC(=O)NC1CCCCC1)S(C)(=O)=O,i,0.88,-5,x,x,-0.6,101
O=C(O)C(NS(=O)(=O)c1cccc2nsnc12)c1ccccc1 (centres undefined),i,0.94,x,x,x,x,106
O=C(NCc1csc2ccc(Cl)cc12)Nc1cccc2ccccc12,i,1,x,x,x,x,97
C/C(=N\Nc1nc(N2CCCCC2)nc(N2CCOCC2)n1)c1ccccc1O,i,0.79,-5,x,x,x,100
O=C1CCc2ccccc2N1,i,1,x,x,x,x,98
O=C1C2C3C=CC(C3=C(c3ccccc3)c3ccccc3)C2C(=O)N1CCO (centres undefined),i,0.97,-2,-24,80,-0.2,107
O=[N+]([O-])c1ccc(OCCOCCOc2ccc([N+](=O)[O-])cc2)cc1,i,1,x,x,x,x,101
O=C(Nc1cccc(NC(=O)c2ccc(-c3ccc(Br)cc3)o2)c1)c1ccccc1,i,0.71,-8,43,116,-2.4,88
C/C(=N\NC(=O)CCCNc1ccc(C)cc1)c1ccccn1,i,0.99,-12,64*,115*,-1.4,96
COc1ccc(C2(CNS(=O)(=O)c3ccc(C)cc3)CCOCC2)cc1,i,1,x,x,x,x,97
O=C(NCCSc1ccccc1)c1cccnc1,i,0.83,-4,0,79,-0.9,96
O=C(c1cccc(F)c1)N1CCN(S(=O)(=O)c2ccccc2)CC1,i,0.79,0,x,x,0.2,100
COc1cc(C(=S)N2CCOCC2)ccc1OC(=O)c1cc([N+](=O)[O-])cc([N+](=O)[O-])c1,i,1.1,-5,x,x,-0.9,98
Cc1ccc(Nc2nc(-c3cccs3)cs2)nc1,i,1.1,-2,18,115,x,100
CCc1ccc(CC2S/C(=C(\C#N)C(C)=O)NC2=O)cc1 (centres undefined),u,x,-4,-16,86,-1.0,100
O=S(=O)(NCc1ccco1)c1cnc(Cl)c(Cl)c1,i,1.1,x,x,x,x,95
O=S(=O)(NC1CCCCC1Sc1ncccn1)c1ccccc1 (centres undefined),i,1.1,-5,-3,62,-1.5,110
O=C(CCN1CCCCC1)Nn1c(=S)[nH]c2ccccc2c1=O,i,0.94,-6,x,x,-3.4,100
CCc1ccc2c(Cl)c(C(=O)N/N=C/c3c[nH]c4ccccc34)sc2c1,i,0.68,3,x,x,-3.7,103
O=c1sc2ccccc2c(N2CCCC2)c1[N+](=O)[O-],i,0.84,-5,x,x,x,101
Cc1ccc(S(=O)(=O)CCSc2n[nH]c(=O)n2-c2ccc3c(c2)OCCO3)cc1,i,0.52,x,x,x,x,101
O=C(CNC(=S)N(CCCN1CCOCC1)Cc1cccs1)N1CCCC1,i,1,12,x,x,x,103
CCOC(=O)NC(NCc1ccccc1Cl)(C(F)(F)F)C(F)(F)F,i,0.95,-1,-18,94,-1.1,102
COc1ccc(-c2cc(C(F)(F)F)nc(SCC(=O)Nc3cc(C)on3)n2)cc1,i,1,-4,56,148,-2.1,101
CC1(C)CC(=NOC(=O)c2ccccc2)CC(C)(C)N1O,i,1,-13,24,134,-0.9,100
O=C(NCCCn1ccnc1)C(=O)NCC1OCCN1S(=O)(=O)c1ccc(F)cc1 (centres undefined),i,0.88,-1,32,103,-0.8,104
Cc1ccc(/C=N/N2CCN(c3ccccc3)CC2)cc1,i,0.91,-3,x,x,x,95
N#Cc1nc(COc2ccccc2Cl)oc1NCc1ccc(F)cc1,i,0.87,-7,68,83,2.6,95
O=C(CCn1nnc2ccccc2c1=O)N[C@H](C(=O)O)c1ccccc1,i,0.7,-5,29,122,-1.9,101
CCOC(=O)c1c(Nc2ccccc2OCCOC)n[nH]c1C,i,0.93,x,x,x,x,76

The listing continues:
compound,HSV replic up,HSV replic up primary fold,PKD1 kinase inh,Insulin prom inh,Insulin prom inh cell count,GALR2 ag,RGS16-Gao
Cn1nc([N+](=O)[O-])nc1Sc1nnnn1-c1ccc(C(=O)O)cc1,i,0.96,3,x,x,x,102
CCOc1c(OC(C)=O)ccc(/C=C/c2ccc3cccc(OC)c3n2)c1[N+](=O)[O-],i,0.72,0,22,143,-2.2,105
Cc1ccc(/C=N/N2CCN(Cc3ccc(Cl)cc3)CC2)o1,i,0.89,1,-3,85,-1.0,98
N#Cc1ccc(NC(=O)Nc2ccc(Cl)cc2)cc1,i,0.71,-11,x,x,-1.6,104
O=C(CCc1ccccc1)Nc1ccc(Cl)cn1,i,0.53,-5,-91,67,-1.7,104
Cc1ccc(NC(=O)COC(=O)C2COc3ccccc3O2)cc1S(=O)(=O)N1CCOCC1 (centres undefined),i,0.89,-9,-13,114,1.3,67
CC(/C=C1\SC(=S)N(c2ccc(C(=O)O)cc2)C1=O)=C\c1ccccc1,i,1.1,x,x,x,x,100
